# Compound activity deposited in PubChem by National Center for Advancing Translational Sciences (NCATS).
# GLA inh pH 4.5: alpha-galactosidase A (human) inhibition, pH 4.5 | purified enzyme, 4-MU-alpha-Gal fluorescence, pH 4.5 | activity change, negative = inhibition, % at 105 µM | 230,000 tested, under 10 active | AID 1467; inconclusive = small, poorly fitted or top-dose-only inhibition, or a rising curve; inactive = flat fitted curve, though single readings scatter; no compound was filed as active;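 further: 0% = full activity with enzyme and -100% = basal without enzyme; dose as in the result columns while the protocol names 77 µM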
# Target sequence (P06280 whole entry, looked up): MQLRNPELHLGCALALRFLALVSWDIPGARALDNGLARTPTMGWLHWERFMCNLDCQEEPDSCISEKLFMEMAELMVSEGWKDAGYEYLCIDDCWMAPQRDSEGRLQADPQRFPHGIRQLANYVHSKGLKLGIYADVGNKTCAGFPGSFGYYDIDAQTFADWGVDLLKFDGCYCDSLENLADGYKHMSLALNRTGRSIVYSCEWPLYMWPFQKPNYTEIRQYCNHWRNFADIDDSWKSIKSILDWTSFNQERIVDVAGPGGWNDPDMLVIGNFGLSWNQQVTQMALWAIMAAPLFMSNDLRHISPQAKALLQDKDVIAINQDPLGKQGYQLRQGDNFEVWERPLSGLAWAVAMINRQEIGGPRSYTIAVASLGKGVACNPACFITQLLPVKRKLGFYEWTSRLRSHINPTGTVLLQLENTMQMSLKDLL
# Starred values were filed as active, the others as inactive; & = joins results of further samples. A portion of the library, so the mix of outcomes need not match the whole.
GLA inh pH 4.5 | Structure
-5.2&6.6 | C[C@H](N=C(NC#N)Nc1ccncc1)C(C)(C)C
-6.6 | O=C(O)[C@H]1CN(C/C=C/P(=O)(O)O)CCN1
-6.2 | CN(Cc1cc(Br)cc(Br)c1N)C1CCCCC1
-2.6 | COc1cccc([C@@H]2Oc3ccc(Br)cc3C(=O)[C@H]2OC(=O)NCc2ccco2)c1
-14.1 | COc1ccc(C2/C=C\[C@H](O[Si](C)(C)C(C)(C)C)[C@H](C(C)C)CC(=O)N2Cc2ccccc2)cc1 (stereo partly drawn)
-3.2 | COc1cc(C(=O)Oc2ccc3c(OC)c4ccoc4nc3c2OC)cc(OC)c1OC
-29.4 | O=C(O)CCC/C=C\CC1C2CCC(O2)C1CNNC(=O)Nc1ccccc1 (stereo not drawn)
-0.1 | c1ccc(COCCCc2cnc[nH]2)cc1
-2.6 | CCC[C@@H]1C[C@@H](C(=O)N[C@@H]([C@H]2O[C@H](SC)[C@H](O)[C@@H](O)[C@H]2O)[C@@H](C)O)N(C)C1
-7.6 | N[C@@]1(C(=O)O)CO[C@H]2[C@H](C(=O)O)[C@H]21
0.6 | NC(=O)c1ncn(C2OC(CO)C(O)C2O)c1N (stereo not drawn)
-3.5 | O=C(O)P(=O)(O)O
-2.8 | CCCCCCCCCCCCCCC/C=C/[C@@H](O)[C@H](NC(=O)CCCCCCCCCCCCC)OC (tested in a mixture with another compound)
-0.4 | CCC(=O)OC1(C)C(=O)C=C2C=C(CCCNC(=O)OC(C)(C)C)OC=C2C1=O (stereo not drawn)
-4.3&4.4 | C[C@]12CCC(=O)C=C1CC[C@@H]1C2[C@@H](O)C[C@@]2(C)[C@H]1CC[C@]2(O)C(=O)CO (stereo partly drawn)

# (cont.)
GLA inh pH 4.5 | Structure
-6.6 | CN(C)[C@H]1C(=O)C(C(=O)NCN2CCCC2)=C(O)[C@]2(O)C(=O)C3=C(O)c4c(O)cccc4[C@@](C)(O)[C@H]3C[C@@H]12
-9.5 | COC/C=C/C1=CC2=CC(=O)C(C)(OC(=O)c3ccc(Cl)nc3)C(=O)C2=CO1 (stereo not drawn)
-5.6 | CC(C)[C@@H](CC(=O)N[C@@H]1CCCC[C@H]1C(=O)N[C@H](CC(=O)N[C@@H](CCC(=O)O)CC(=O)O)Cc1ccccc1)NC(=O)C[C@H](Cc1c[nH]c2ccccc12)NC(=O)[C@@H]1CNCC[C@H]1N
-13.2&-2.3 | CCOc1ccc(Cc2nccc3cc(OCC)c(OCC)cc23)cc1OCC
1.2 | Oc1cc2c(c(Cl)c1O)CCNC[C@H]2c1ccccc1
-5.6 | CCCCCCCCCCCCCCCCOP(=O)([O-])OCC[N+](C)(C)C
0.0&-1.1&5.1 | N[C@@H](C(=O)O)c1ccc(C(=O)O)c(C(=O)O)c1
9.0 | NCC1OC(n2cnc3c(=O)[nH]c(N)nc32)C(O)C1O (stereo not drawn)
1.5 | CCCCCCCC(=O)OCCOC(=O)CCCCCCC
-0.3 | COC(=O)c1ccc(C(NC(=O)OCc2ccccc2)/C(=C/[C@@H](C)C(=O)NCc2cccnc2)c2cccnc2)cc1 (stereo partly drawn)
-9.7&1.8&-5.7 | CCCCCCCC/C=C\CCCCCCCC(N)=O
-8.2 | CCC(=O)OCC(=O)C1(OC(=O)CC)C(C)CC2C3C(Cl)CC4=CC(=O)C=C[C@@]4(C)C3C(O)C[C@@]21C (stereo partly drawn)
2.9 | Cc1cnc(CNc2nc(-c3ccc4c(c3)OCO4)nc3ccccc23)cn1
0.1 | COc1cccc([C@@H]2Oc3ccc(OC)cc3[C@H](O)[C@H]2O)c1
-5.5 | CC(C)C[C@@H](CC(=O)N[C@@H](CCCN)CC(=O)N[C@@H]1CCCC[C@H]1C(=O)N[C@H](CC(=O)N[C@@H](CCC(=O)O)CC(=O)O)CC(C)C)NC(=O)[C@@H]1CCCC[C@H]1N

# Fetched one by one from the list above, two records:
GLA inh pH 4.5 | Structure
-2.8 | CCCCCCCCCCCCCCC/C=C/[C@@H](O)[C@H](NC(=O)CCCCCCCCCCCCC)OC (tested in a mixture with another compound)
2.9 | Cc1cnc(CNc2nc(-c3ccc4c(c3)OCO4)nc3ccccc23)cn1

# 16 structures from above, sorted by heavy-atom count, low to high:
GLA inh pH 4.5 | Structure
-3.5 | O=C(O)P(=O)(O)O
-7.6 | N[C@@]1(C(=O)O)CO[C@H]2[C@H](C(=O)O)[C@H]21
-0.1 | c1ccc(COCCCc2cnc[nH]2)cc1
0.0&-1.1&5.1 | N[C@@H](C(=O)O)c1ccc(C(=O)O)c(C(=O)O)c1
0.6 | NC(=O)c1ncn(C2OC(CO)C(O)C2O)c1N (stereo not drawn)
1.2 | Oc1cc2c(c(Cl)c1O)CCNC[C@H]2c1ccccc1
0.1 | COc1cccc([C@@H]2Oc3ccc(OC)cc3[C@H](O)[C@H]2O)c1
-4.3&4.4 | C[C@]12CCC(=O)C=C1CC[C@@H]1C2[C@@H](O)C[C@@]2(C)[C@H]1CC[C@]2(O)C(=O)CO (stereo partly drawn)
-2.6 | CCC[C@@H]1C[C@@H](C(=O)N[C@@H]([C@H]2O[C@H](SC)[C@H](O)[C@@H](O)[C@H]2O)[C@@H](C)O)N(C)C1
-29.4 | O=C(O)CCC/C=C\CC1C2CCC(O2)C1CNNC(=O)Nc1ccccc1 (stereo not drawn)
-0.4 | CCC(=O)OC1(C)C(=O)C=C2C=C(CCCNC(=O)OC(C)(C)C)OC=C2C1=O (stereo not drawn)
-8.2 | CCC(=O)OCC(=O)C1(OC(=O)CC)C(C)CC2C3C(Cl)CC4=CC(=O)C=C[C@@]4(C)C3C(O)C[C@@]21C (stereo partly drawn)
-6.6 | CN(C)[C@H]1C(=O)C(C(=O)NCN2CCCC2)=C(O)[C@]2(O)C(=O)C3=C(O)c4c(O)cccc4[C@@](C)(O)[C@H]3C[C@@H]12
-0.3 | COC(=O)c1ccc(C(NC(=O)OCc2ccccc2)/C(=C/[C@@H](C)C(=O)NCc2cccnc2)c2cccnc2)cc1 (stereo partly drawn)
-5.5 | CC(C)C[C@@H](CC(=O)N[C@@H](CCCN)CC(=O)N[C@@H]1CCCC[C@H]1C(=O)N[C@H](CC(=O)N[C@@H](CCC(=O)O)CC(=O)O)CC(C)C)NC(=O)[C@@H]1CCCC[C@H]1N
-5.6 | CC(C)[C@@H](CC(=O)N[C@@H]1CCCC[C@H]1C(=O)N[C@H](CC(=O)N[C@@H](CCC(=O)O)CC(=O)O)Cc1ccccc1)NC(=O)C[C@H](Cc1c[nH]c2ccccc12)NC(=O)[C@@H]1CNCC[C@H]1N

# Other results.
GLA inh pH 4.5 | Structure
2.1 | CC#CCN1c2ccccc2[C@]23C[C@@H](C(=O)OC)N(S(=O)(=O)c4c(C)noc4C)C2=NC(C(=O)OC)=C(C(=O)OC)[C@H]13
2.9 | C=C1C(=O)OC2C[C@@]3(C)CCCC(=C)[C@@H]3CC12 (stereo partly drawn)
-6.7 | COC(=O)[C@H](COC(C)(C)C)NC(=O)O[C@H]1C(=O)c2ccc(OC)cc2O[C@@H]1c1ccc2c(c1)OCO2
0.5 | CC[C@H](C)[C@H](N)C1=N[C@H](C(=O)N[C@@H](CC(C)C)C(=O)N[C@@H](CCC(=O)O)C(=O)N[C@@H](C(=O)N[C@H]2CCCCNC(=O)[C@@H](CC(N)=O)NC(=O)[C@@H](CC(=O)O)NC(=O)[C@@H](Cc3cnc[nH]3)NC(=O)[C@@H](Cc3ccccc3)NC(=O)[C@@H]([C@@H](C)CC)NC(=O)[C@@H](CCCN)NC2=O)[C@@H](C)CC)CS1
-8.5 | COC(=O)CC1C(C)(C)C(=O)C2CC3=C4CC(=O)OC(c5ccoc5)[C@]4(C)CCC3[C@@]1(C)C2=O (stereo partly drawn)
-5.8 | C=CC[C@@](C(C)=O)(C(=O)OC)C(NC(=O)OC)c1ccccc1 (stereo partly drawn)
-2.7 | CCCN(CCC)C[C@@H]1CCCCN1CCNC(=O)N1c2ccccc2C(=O)Nc2cccnc21
-0.4 | CC1(O)CCC(C(C)(C)O)CC1 (stereo not drawn)
-2.7 | CN1C(=O)CC[C@@H]1c1cccnc1
-2.8 | Cc1c(O)cc(O)c2c(=O)c(-c3ccc(O)cc3)coc12
-2.1 | COC(=O)c1ccc(C(NC(=O)OCc2ccccc2)/C(=C/[C@@H](C)C(=O)NCc2ccccc2)c2cccnc2)cc1 (stereo partly drawn)
6.7 | CCc1cc2c(c(CC)n1)CCC(=O)N2Cc1ccc(-c2ccccc2-c2nn[nH]n2)cc1
-4.4 | CC1=CC2C(C(C)C)CCC(C)(O)C2CC1 (stereo not drawn)
-11.7 | O=c1[nH]c(Cl)nc2c1ncn2C1OC(CO)C(O)C1O (stereo not drawn)
-7.9 | O=S(=O)(CCC(F)=C(F)F)c1nnnn1C1CCCCC1

# Remaining list, next part.
GLA inh pH 4.5 | Structure
-4.0 | NCC1O[C@@H](OC2C(N)CC(N)C(O)C2O[C@@H]2OC(CO)C(O)C2O)C(N)C(O)C1O (stereo partly drawn)
-2.9 | N[C@@H](C(=O)O)[C@H](CC(=O)O)c1ccc(Cl)cc1
2.1 | C[C@H](NC(=O)N1CCc2nc(COc3ccccc3)c3c(c2C1)CO[C@@H](C)C3)c1ccccc1
5.8 | CC(=O)N1CCN(C)CC1
4.6 | O=S(=O)(O)c1cc(N=C=S)ccc1/C=C/c1ccc(N=C=S)cc1S(=O)(=O)O
4.0 | O=C(Cc1ccccc1)Nc1nc2ccc(Cl)cc2c2nc(-c3ccco3)nn12
-1.1 | O=C(O)/C(=C/c1c(C(=O)O)[nH]c2cc(Cl)cc(Cl)c12)c1ccccc1
-8.8 | CCCCCCCCCCCCCCCCCC(=O)OCC(C)O (stereo not drawn)
-0.6 | C=C1C[C@H](OC(=O)C(C)(O)CCl)C2C(=C)C(=O)O[C@@H]2C2C1C[C@H](O)[C@]2(O)CCl (stereo partly drawn)
-2.1&-8.8 | C=C/C1=C/Cc2ccccc2[C@H](C[N+](=O)[O-])C(C(C)=O)(C(=O)OC)C1 (stereo partly drawn)
-5.8 | Cc1cc2oc(=O)cc(-c3ccccc3)c2c(C)c1/C=C/c1ccc(F)cc1
-8.8 | Cc1ccc(CC(Cc2nc3ccccc3[nH]2)c2nc3ccccc3[nH]2)cc1 (stereo not drawn)
0.6 | COc1cc(-c2coc3cc(OCc4ccccc4)c(OC)c(O)c3c2=O)cc(O)c1OC
-0.9 | CCN(CC)CCCC(C)n1c(-c2ccccc2)nc2c(NCCOC)nc(C)nc21 (stereo not drawn)
-3.1 | C[C@@H]1CNCCN1S(=O)(=O)c1cccc2cnccc12

# More records.
GLA inh pH 4.5 | Structure
-1.9 | CCC1=C2CC[C@H]3C(=O)N(c4ccccc4)C(=O)[C@H]3[C@H]2[C@@]2(C)C(=O)N(Cc3ccccc3)C(=O)N2C1=O
-8.4&-0.9 | CC(=O)N[C@@H](CC(=O)O)C(=O)N[C@@H](CCC(=O)O)C(=O)O
-2.6 | COC(=O)c1ccc(C(NC(=O)OCc2ccccc2)/C(C)=C/[C@@H](C)C(=O)NCc2cc(F)cc(F)c2)cc1 (stereo partly drawn)
5.3 | COC(=O)[C@@]1(Cc2ccccc2)[C@H]2c3cc(C(=O)N(C)C)n(C[C@H](O)CO)c3C[C@H]2CN1C(=O)c1ccccc1
3.7 | C=CC1=C2C=C(C3CC3)N(C(CO)CO)C=C2C(=O)C(C)(OC(=O)c2ccco2)C1=O (stereo not drawn)
-1.9 | CC[C@@H]1Cn2c(c3nc(-c4cc(Cl)cc(Cl)c4Cl)nc-3n(C)c2=O)N1
